# From PubChem
# Autofluor counter: counter-screen for toxin protease inhibitors: compound fluorescence; fluorescence intensity (no concentration beside the values); AID 624483; compound autofluorescence counterscreen, microsphere flow cytometry; hits give high values; 360,000 tested, 3.1% active;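 active = at least 3 SD above the mean of all compounds, about 16000 in these data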;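 also: 100 nL of 1 mM stock went into each well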
# PrP 5UTR inh: suppresses PrP 5' UTR mRNA reporter expression; cell-based PrP 5' UTR mRNA reporter, plate reader; inhibition, % (concentration not given with the values); 340,000 tested, 0.35% active; AID 488862;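 active = every replicate at 50% or more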;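 also: 0 = median of the neutral control wells; tested in H4 reporter cells; numbers are from one replicate; inactives centre near -14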
# Mtb hypoxia inh: reduces hypoxia-regulated biosensor signal in M. tuberculosis. M. tuberculosis hypoxia-regulated fluorescent reporter, fluorescence. fluorescence inhibition, % (no concentration beside the values). 300,000 tested, 0.1% active. AID 1159583;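 active = 35 to 45% if threefold the growth effect, above 45% if 1.5-fold the growth effect; inactive = the rest, general growth blockers included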;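 also: wells of about 50 µL received 100 nL stock; 0% = vehicle wells and 100% = reference inhibitor wells; whole bacteria with a GFP reporter of the hypoxia response; strong numbers were not always called active; many hits fall short of the cut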
# BJeLR viability: kills HRASV12-expressing BJeLR cells; BJeLR (HRASV12) viability, CellTiter-Glo ATP luminescence, 48 h; reference of the scale not given here; AID 1554; 300,000 tested, 0.17% active; inhibition, % (no concentration beside the values);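 active = replicate mean above 50%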;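 also: 50 nL library stock added to about 25 µL; numbers are from one replicate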
# Sa RN4220 lethal: S. aureus RN4220 growth inhibition. OD600, 16 h. inhibition, % (test concentration not listed). 330,000 tested, 0.33% active. AID 1259311;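 active = z-score of -3 or lower and OD600 up to 0.18 on both plates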;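 also: plate controls were untreated cells for no effect and reference antibiotic for full effect; stock transfer was 100 nL into about 80 µL; one replicate is shown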
# Sa ugtP lethal: kills S. aureus RN4220 lacking UgtP; AID 1259309; growth inhibition, % (concentration not given with the values); 330,000 tested, 0.54% active; S. aureus RN4220 ugtP deletion, OD600 growth, 16 h; some inactives read as strong as hits;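 active = z-score under -3 and OD600 up to 0.15 on both plates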;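 also: plate controls were untreated wells for no effect and antibiotic for full effect; wells of about 80 µL received 100 nL stock; the first replicate is given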
# Mtb hypoxia inh growth: second read-out of Mtb hypoxia inh, no call of its own (marks repeat the call); growth inhibition, %; measured here: M. tuberculosis growth (absorbance);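 0% = vehicle and 100% = reference antibiotic; read after six days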
# Active calls of the source: *; · = no result given; & = joins results of further samples.
structure	PrP 5UTR inh	Mtb hypoxia inh	Autofluor counter	Sa RN4220 lethal	BJeLR viability	Sa ugtP lethal	Mtb hypoxia inh growth
Cc1ccc(-c2ccc(SCC(=O)Nc3ccc4c(c3)OCCO4)nn2)cc1	-53.1	11.6	9705	6.2	-5.4	15.3	3.8
O=C(NCc1ccccn1)c1cc(S(=O)(=O)N2CCCCC2)ccc1Cl	-3.0	-7.0	5008	-0.7	·	2.3	-9.7
CCc1nnc(NC(=O)c2oc3cc(C)c(C)cc3c2C)s1	-26.0	10.2	2367	9.1	5.0	7.3	7.5
O=C(Nc1ccsn1)c1ccc(Cl)cc1Cl	-55.4	·	3238	·	-2.0	·	·
CC(C)c1cc(C(=O)N2CCCC(Nc3ccc(F)cc3)C2)nc(N)n1 (stereo not given)	-2.6	5.4	6114	1.7	14.4	5.0	3.9
CCc1ccc(C(=O)NNC(=O)C2CC(=O)N(Cc3ccccc3)C2)cc1 (stereo not given)	-30.1	8.0	5195	0.9	3.8	14.1	2.0
Cc1ccc(Cl)cc1N1CCN(S(=O)(=O)c2c(C)[nH]c(C)c2C(=O)N2CCCC2)CC1	-10.5	-6.6	5218	2.4	-15.7	7.6	-6.4
COc1ccccc1N(CC(=O)N1CCCC1)S(=O)(=O)c1ccc(C)cc1	-19.9	·	3870	·	-6.9	·	·
CC(C)CN1C(=O)C(NC(=O)C2CC2)(C(F)(F)F)C2=C1CC(C)(C)CC2=O (stereo not given)	-33.5	-3.8	10662	0.3	-10.4	-2.8	3.6
CSc1nc(Oc2ccc(Cl)cc2)c2sccc2n1	-0.7	0.6	2813	6.5	-3.7	18.6	13.4
COc1cc(C(C)=O)ccc1OCC(O)CNCC(O)c1ccccc1 (stereo not given)	-14.2	-3.8	4132	5.0	0.8	2.1	-0.6
O=C1c2ccccc2C(=O)N1CCN1CCc2ccccc21	-52.7	11.1	4511	6.9	-6.2	-4.6	8.5
CC(OCCN(C)C)C(=O)C12CC3CC(CC(C3)C1)C2 (stereo not given)	·	5.1	5458	1.7	-0.6	8.0	7.3
CCOCCCn1c(SCC(=O)Nc2ccccc2)nc2ccccc2c1=O	-21.6	12.8	4428	1.0	4.2	5.5	10.4
COC(=O)c1ccc(Sc2ccccn2)c([N+](=O)[O-])c1	-1.1	6.5	2665	2.8	6.4	2.0	3.8
Cc1cccc(C)c1NC(=O)CNCC(=O)N(C)C	-33.5	2.2	4250	2.0	-0.3	0.0	-8.6
Clc1ccc(CN2CCSCC2)c(Cl)c1	-9.9	4.9	2945	3.8	2.1	-1.3	-3.9
Cc1ccccc1NC(=O)CCC(=O)NN=Cc1c[nH]c2ccccc12	·	0.9	·	5.9	·	8.8	8.2
O=C(Nc1cccc(C(=O)N2CCOCC2)c1)NC1CCCCC1	-10.3	·	4557	-5.0	-1.4	-7.6	·
N#CC1CN(Cc2ccccc2)CN(Cc2ccccc2)C1	-7.2	5.1	4425	-0.4	-0.7	7.6	-1.2
CC(C)c1cc(C(=O)N/N=C/c2cccnc2)cs1	-15.6	·	2093	·	0.5	·	·
COc1ccc(Cn2ccnc2SCC(=O)Nc2nnc(C)s2)cc1	-20.2	6.0	6038	1.8	6.4	3.8	-1.5
C=CCOC(=O)CCP(=O)(CCC(=O)OCC=C)c1ccccc1	-7.4	·	4243	0.1	·	0.4	·
COc1ccccc1NS(=O)(=O)c1ccc(OC)c([N+](=O)[O-])c1	-30.6	8.3	4466	3.1	3.0	2.0	11.2
CCCCn1c2c(c3ccccc31)CCc1nonc1-2	-3.2	-3.8	6181	1.9	-0.8	-2.9	1.0
Cc1cccc(Oc2nc3c(c(=O)n(C)c(=O)n3C)n2C)c1	-3.1	3.6	4329	0.8	3.7	3.1	3.9
O=c1c2ccccc2oc2c1oc1ccccc12	-70.6	2.8	3480	7.0	·	13.0	-0.3
O=C(COc1ccccc1)Nc1ccc(S(=O)(=O)N2CCCCCC2)cc1	-31.7	16.9	9374	2.7	3.0	0.6	3.7
CC(C)CN1C(=O)C(=O)N(CC(=O)NC2CCCc3ccccc32)C1=O (stereo not given)	16.2	4.3	7543	2.2	9.5	-3.0	3.0
CCc1cn(C2CC(O)C(CO)O2)c(=O)[nH]c1=O (stereo not given)	-10.8	-1.6&0.1	3351	0.5&3.7	·	0.5&4.5	-0.2&8.1
CCCOC(c1ccccc1)(c1ccc(C(F)(F)F)cc1)C(Oc1nc(C)cc(C)n1)C(=O)O (stereo not given)	-25.9	-3.1	3644	-1.9	11.2	0.0	2.0
CNC(=O)NCCN1CCCC1=O	0.0	9.3	2910	-15.1	-11.8	-5.1	6.1
C=C(C)CSc1nnc(-c2cc(OC)c(OC)c(OC)c2)n1N	-29.9	1.2	21195*	-0.7	5.7	-2.6	1.2
COc1cc(C)nc(OCCNC(=O)COc2ccc(Cl)cc2C)n1	-7.6	-8.6	3464	4.6	6.2	-9.3	1.6
CC(C)(C)NC(=O)C(c1ccc(F)cc1)N(CC1CCCO1)C(=O)c1csnn1 (stereo not given)	-25.0	·	3349	·	2.9	·	·
Cc1ccc(NC(=S)N/N=C/c2ccc([N+](=O)[O-])s2)cc1	-0.9	·	2722	·	-10.3	·	·
CC(=O)N1N=C(N)SC1(C)C	-16.1	19.0	4187	4.8	-4.9	1.7	6.9
Cc1cc(Cl)c(C)c(S(=O)(=O)Oc2ccccc2NC(=O)CCC(=O)O)c1Cl	-4.7	19.4	2993	8.9	·	-1.6	27.8
CC(C)(C)C1CCc2onc(C(=O)Nc3ccc4c(c3)OCO4)c2C1 (stereo not given)	-7.6	-7.8	4216	5.4	-1.0	6.8	-3.8
COc1ccc(CCOC(=O)c2ccc(NC(=O)CC#N)cc2)cc1	-17.3	6.4	6823	-1.2	5.2	-4.3	2.0
O=C(CSc1ccc(Cl)cc1)N1CCN(c2ccc([N+](=O)[O-])cc2Cl)CC1	-3.5	·	4608	0.6	-1.9	1.3	·
CC1(C(=O)N(c2ccccc2)C(C(=O)NC2CCCC2)c2ccccn2)CC(=O)N=C2C=CC=CN21 (stereo not given)	-18.9	6.0	4638	0.1	·	3.8	9.3
CCOc1ccc(NC(=O)CN(C)C(=O)CCCc2c[nH]c3ccccc23)cc1OCC	-35.9	5.7	6785	-4.5	-4.9	1.1	-9.3
COc1ccc(CCNC(=O)/C=C/c2ccco2)cc1	-4.2	·	4267	·	-1.3	·	·
O=C(COc1cccc(Cl)c1)Nc1ccccc1N1CCCCC1	-19.5	13.8	4941	2.9	-5.6	-8.8	1.0
O=C(OCC(=O)C12CC3CC(CC(C3)C1)C2)c1ccc(O)cc1	-40.5	4.9	2943	0.0	·	4.6	-7.2
Cc1ccc(C(=O)/C=C/c2c(C)nn(-c3ccccc3)c2Cl)cc1	-35.6	0.5	4360	1.5	-2.3	-4.9	5.1
COc1ccc(COC(=O)c2ccc(Cl)c(S(=O)(=O)N3CCOCC3)c2)cc1F	-85.3	7.9	6110	1.2	3.0	0.9	4.9
Cc1csc(=O)n1CCC(=O)OCC(=O)c1c(N)n(CC(C)C)c(=O)n(C)c1=O	-15.2	5.8	·	0.2	-1.8	-3.4	6.9
O=C(C1CC1)N1CCC(c2nc(-c3ccc(S(=O)(=O)N4CCCC4)cc3)no2)CC1	-32.9	16.2	5669	4.4	-3.6	2.7	4.1
CC1CCN(S(=O)(=O)c2ccc(NC(=O)[C@@H]3CCCN3C(=O)c3cccs3)cc2)CC1	-23.9	10.2	4037	-3.0	·	2.0	5.8
CCC(CC)NC(=O)c1ccc2nc[nH]c2c1	-15.5	·	2201	-3.4	2.7	-0.1	·
COc1ccc(CN2CCC(Oc3cc(C(=O)NC4CC4)ccc3OC)CC2)c(O)c1	4.3	·	4592	·	-1.0	·	·
O=C(O)c1ccccc1NC(=O)c1ccccc1Nc1ccccc1	·	·	3319	35.7	17.0	39.3	·
CS(=O)(=O)N(CC(=O)N1CCCCCC1)c1cccc([N+](=O)[O-])c1	-14.7	16.8	3407	0.4	-7.8	2.1	3.2
O=C(CSc1nnc(-c2ccccc2O)o1)Oc1ccc(Br)cc1	-14.2	4.1	10948	3.1	2.6	0.6	6.4
COc1ccc(OC)c(NC(=O)c2cn(C)c(=O)c3cc(OC)c(OC)cc23)c1	9.2	-1.7	8555	0.6	-4.2	-5.7	6.5
O=C(O)c1ccccc1-c1nc2cc(Cl)ccc2c(=O)n1O	-23.9	3.3	4498	5.7	-0.1	-3.7	3.2
O=C1c2ccccc2C(=O)N1CN(C(=O)COc1ccccc1)c1ccccc1	7.1	4.1	9452	-1.5	14.0	-0.8	5.6
CCOC(=O)c1oc2ccccc2c1CSc1nnnn1-c1ccc(C)cc1	-23.6	6.7	4401	11.3	-3.0	8.2	8.8

# Next part:
structure	PrP 5UTR inh	Mtb hypoxia inh	Autofluor counter	Sa RN4220 lethal	BJeLR viability	Sa ugtP lethal	Mtb hypoxia inh growth
CN(C(=S)NC(=O)C1CC1)c1ccc(O)cc1	-52.3	8.5	2889	8.5	·	2.6	-1.7
N#Cc1cc(N)ccc1-n1cccc1	-10.2	-2.2	3883	3.7	6.3	2.6	-5.5
Nc1ccc(NC(=O)c2cccc(C(=O)Nc3ccc(N)cc3Cl)c2)c(Cl)c1	-12.9	-2.6	3020	0.5	-2.8	-4.9	-4.4
O=C1N(c2ccccc2C(F)(F)F)OC1(Cc1ccccc1)c1ccccc1 (stereo not given)	2.0	9.0	3105	10.1	·	6.1	0.3
COc1ccc(-c2nc(Cc3ccc(Cl)cc3)no2)cc1OC	-15.0	·	2135	0.8	-1.1	-7.1	·
COc1ccc(CNCCc2ccc([N+](=O)[O-])cc2)c(OC)c1OC	4.1	2.3	·	0.5	-7.9	-0.8	-6.9
C=CCn1cc(C(=O)N2CCN(C)CC2)c(=O)c2cc(S(=O)(=O)N3CCCC3)ccc21	-7.0	·	5176	-4.3	-5.3	-6.0	·
COC(=O)c1ccc(N2OC3(C)C=CC2CC3)cc1 (stereo not given)	-54.2	6.3	6570	4.6	-10.4	5.6	-15.8
Cc1noc(C)c1COc1ccc(C(=O)OCC(=O)NCCN2C(=O)CSC2=O)cc1	-21.1	7.9	2233	3.2	0.6	-1.4	0.0
COc1cc(SC)ccc1C(=O)N1CC(C)OC(C)C1 (stereo not given)	-27.1	6.5	4518	5.3	-3.5	7.9	11.5
O=[N+]([O-])c1ccc(O)c2ncccc12	-21.1&-2.0	·	5177	98.9*	41.2	99.2*	·
Cc1ccc(OC(C)C(=O)Nc2ccc(S(=O)(=O)N3CCOCC3)cc2)cc1 (stereo not given)	-7.0	15.2	6780	-1.5	-7.5	2.9	4.4

# Another view of some results above:
# The line under a structure holds: PrP 5UTR inh | Mtb hypoxia inh | Autofluor counter | Sa RN4220 lethal | BJeLR viability | Sa ugtP lethal | Mtb hypoxia inh growth
- C=CCn1cc(C(=O)N2CCN(C)CC2)c(=O)c2cc(S(=O)(=O)N3CCCC3)ccc21
 : -7.0 | · | 5176 | -4.3 | -5.3 | -6.0 | ·
- CN(C(=S)NC(=O)C1CC1)c1ccc(O)cc1
 : -52.3 | 8.5 | 2889 | 8.5 | · | 2.6 | -1.7

# Additional records follow:
structure	PrP 5UTR inh	Mtb hypoxia inh	Autofluor counter	Sa RN4220 lethal	BJeLR viability	Sa ugtP lethal	Mtb hypoxia inh growth
O=C(O)C1CC=CCC1C(=O)Nc1ccccc1C(=O)N1CCN(c2ccc(Cl)cc2)CC1 (stereo not given)	-16.1	·	4955	·	-4.3	·	·
Cc1ccccc1Oc1cc(NC(=O)Cn2cnc([N+](=O)[O-])c2)cc([N+](=O)[O-])c1	-1.3	·	3466	·	3.6	·	·
COC(=O)c1[nH]c2cc(OC)ccc2c1NC(=O)c1c(F)cccc1F	-24.4	2.8	3964	1.7	-3.0	0.1	-1.2
CCOC(=O)N1CCN(C(=O)COc2cccc3c2CCN(Cc2cccc(C)c2)C3=O)CC1	-8.3	13.3	3093	1.9	7.9	1.0	7.5
CC(=O)Nc1ccc(NC(=O)C2CCCN2C(=O)Nc2cccc(F)c2)cc1 (stereo not given)	7.2	12.6	2922	0.8	3.0	-5.6	5.6
Cc1cc(C)cc(NC(=O)CN2CCCN(S(=O)(=O)c3ccc(Br)s3)CC2)c1	1.8	6.0	11387	-1.9	-3.8	-17.4	10.8
Cc1cc(C)n(-c2ccc(C(=O)Nc3cccc(S(=O)(=O)N(C)C)c3)cc2)n1	-6.1	-11.5	2456	1.0	2.4	8.0	1.9

# The order is random. About 4.1% of those tested had a hit in this group.
